NS1 function inh: qHTS Assay for Inhibitors of Influenza NS1 Protein Function | Potency, µM (titrated, usually from 46.1 µM), inactives show at the highest dose activity, positive = more growth | S. cerevisiae slowed by influenza A NS1, growth recovery by OD600 | 270,000 tested, 0.4% active; active means well fitted rising curve with a large enough effect; inconclusive means small, poorly fitted or top-dose-only effect; inactive means no such curve, though single readings can be large or run the other way; note: nearly all actives have a fitted effect of over 50% in size
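Recovery from NS1-induced slow growth read by OD600 in budding yeast switched to galactose assay medium (pH 6.0, -URA) at 1:100 dilution. Compound 23 nl per well; the matching strain lacking NS1 serves as control.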
2A StopGo: High Throughput Screening for Foot and Mouth Disease Virus Antivirals; 410,000 tested, 1.2% active; Potency, µM (top dose mostly 57.9 µM), inactives show at the top dose signal change, negative = less light; human cells with a luciferase reporter of 2A StopGo recoding; control for the full effect not named in the record; active = well fitted falling curve with a large enough effect; inconclusive = small, poorly fitted or top-dose-only effect; inactive = no such curve, though single readings can be large or run the other way; tested in HEK293T cells; note: % is set by controls: 0 for no effect and ±100 for the full control effect; nearly all actives have a fitted effect of over 45% in size; luciferase light after 4 h
Cruzain Triton: qHTS Assay for Promiscuous and Specific Inhibitors of Cruzain (with detergent); purified cruzain, Z-FR-AMC fluorescence, 0.01% Triton; Potency, µM, for the others: max response, negative = inhibition, usual class: inhibitors; 200,000 tested, 0.43% active; AID 1478, 2009;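 note: plate controls were neutral wells for no effect and buffer without enzyme for full effect; nearly all actives have a fitted effect of over 40% in size; top concentration of the series not given in the record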
Target sequence (P25779 123-467 limits assumed): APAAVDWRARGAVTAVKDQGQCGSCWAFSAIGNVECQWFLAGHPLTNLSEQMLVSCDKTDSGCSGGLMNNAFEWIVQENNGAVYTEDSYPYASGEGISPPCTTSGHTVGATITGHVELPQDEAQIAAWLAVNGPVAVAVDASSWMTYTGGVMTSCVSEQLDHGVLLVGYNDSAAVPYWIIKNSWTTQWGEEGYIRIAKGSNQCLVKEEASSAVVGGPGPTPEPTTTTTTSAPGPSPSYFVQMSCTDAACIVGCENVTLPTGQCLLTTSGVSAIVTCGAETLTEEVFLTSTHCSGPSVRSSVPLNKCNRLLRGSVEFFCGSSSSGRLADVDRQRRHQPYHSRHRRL
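15 min RT preincubation of 1.5 nM cruzain with compound, then 2 uM Z-FR-AMC added; kinetic AMC fluorescence, 60 s delta. Triton X-100 0.01%, pH 5.5.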
MARV entry inh: qHTS for inhibitors of binding or entry into cells for Marburg Virus; Marburg virus pseudotyped entry inhibition, cell reporter; control for the full effect not named in the record; about a third of the inactives were read at about 46 µM; Potency, µM (top dose mostly 37.8 µM), inactives show at the top dose activity change, negative = inhibition, actives largely listed as inhibitors; 300,000 tested, 1.8% active; AID 540276, 2011; active = well fitted inhibition curve with a large enough effect; inconclusive = small, poorly fitted or top-dose-only effect, or effect the other way; inactive = flat fitted curve, though single readings scatter; tested in HEK293 cells; about a fifth of its hits are not listed in these tables; note: % is set by controls: 0 for no effect and ±100 for the full control effect; luciferase read-out
SARS PLP yeast: qHTS of Yeast-based Assay for SARS-CoV PLP; 330,000 tested, 0.19% active; S. cerevisiae expressing SARS-CoV PLpro, growth rescue; control for the full effect not named in the record; Potency, µM (series often up to 32.9 µM), inactives show at the top dose activity, positive = growth rescue; active means well fitted rising curve with a large enough effect; inconclusive means small, poorly fitted or top-dose-only effect; inactive means no such curve, though single readings can be large or run the other way; note: 0% is about no effect; nearly all actives have a fitted effect of over 55% in size; growth read by luminescence after 48 h
Lassa entry inh: qHTS for Inhibitors of binding or entry into cells for Lassa Virus. Potency, µM (top dose mostly 37.9 µM), inactives show at the top dose activity change, negative = inhibition, actives largely listed as inhibitors. AID 540256, 2011. Lassa virus pseudotype entry inhibition, cell reporter; control for the full effect not named in the record. 300,000 tested, 1.2% active; active means well fitted inhibition curve with a large enough effect; inconclusive means small, poorly fitted or top-dose-only effect, or effect the other way; inactive means flat fitted curve, though single readings scatter; tested in HEK293 cells; note: % is set by controls: 0 for no effect and ±100 for the full control effect; nearly all actives have a fitted effect of over 50% in size; luciferase read-out
Cruzain noTriton: qHTS Assay for Promiscuous and Specific Inhibitors of Cruzain (without detergent) | Cruzipain (Trypanosoma cruzi), P25779 | purified cruzain, Z-FR-AMC fluorescence, no detergent | Potency, µM, without a hit: max response, negative = inhibition, actives largely listed as inhibitors | 200,000 tested, 2.3% active;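 note: plate controls were enzyme without inhibitor for no effect and buffer without enzyme for full effect; nearly all actives have a fitted effect of over 40% in size; top concentration of the series not given in the record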
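Detergent-free condition (0.00005% Triton X-100) in acetate buffer pH 5.5 with DTT. 1.5 nM enzyme and compound were pre-mixed 15 min, then 2 uM Z-FR-AMC substrate added; reaction progress from fluorescence change between first and third reads (60 s).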
RE007 growth inh: qHTS Assay for Inhibitors of the HIV-1 protein Vpr; S. pombe RE007 Vpr strain, BacTiter-Glo ATP luminescence, 24 h; control for the full effect not named in the record; Potency, µM (doses to about 92.2 µM), for the others: at the highest dose activity change, negative = less growth; 360,000 tested, 0.21% active; AID 651644, 2012; active = well fitted falling curve with a large enough effect; inconclusive = small, poorly fitted or top-dose-only effect; inactive = no such curve, though single readings can be large or run the other way;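 note: % is set by controls: 0 for no effect and ±100 for the full control effect; nearly all actives have a fitted effect of over 50% in size; the assay follows cell death caused by Vpr and the record does not say whether a fall means rescue or toxicity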
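Fission yeast strain RE007, carrying one chromosomally integrated HIV-1 vpr copy, was seeded at OD 0.01 in PMG+AL medium with 23 nL pinned compound. After 24 h at 30 °C and 99% humidity, viability was read by BacTiter-Glo luminescence.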
Numbers without * were called inactive; u = inconclusive; x = not tested or not shown; & = joins results of further samples; [ ] = dose if it differs, or a comment. Unless noted, calls come from the whole dose curve; as a rule, active = well fitted curve in the direction sought with a large enough effect; inconclusive = small, poorly fitted or top-dose-only effect, or another doubt; inactive = no such curve, though single readings can be large; an effect the other way counts as inactive or inconclusive. Potency is the fitted concentration of half-maximal effect. Outcome played no part in choosing rows; 4.7% or so of the library scored in one or more.

SMILES | NS1 function inh | 2A StopGo | Cruzain Triton | MARV entry inh | SARS PLP yeast | Lassa entry inh | Cruzain noTriton | RE007 growth inh
COc1ccc(C(=O)NNC(=S)NC(=O)c2cc(-c3ccccc3)nc3ccccc23)cc1 | -52% | -1% | -1.0% | -22% | 0% | -16% | u | 16%
O=C(c1cc(-c2ccccc2)nc2ccccc12)N1CCCC1 | 5% | -3% | x | u | -3% | 15%[46.1 µM] | x | -3%
COc1ccc(C(CC(=O)Nc2cc(OC)cc(OC)c2)n2cccc2)cc1 (stereo unspecified) | 15% | u | -3.8% | 3% | 17% | -11% | 3% | 5%
O=C(C1CCN(S(=O)(=O)c2ccc(-n3cnnn3)cc2)CC1)N1CCN(c2ccccc2)CC1 | -36% | 0% | -19% | u | -4% | -14% | -25% | 2%
CC1CC(C)CN(C(=O)CCn2c(=O)oc3ccccc32)C1 (stereo unspecified) | 14% | -12% | x | 7%[46.1 µM] | 0% | 20%[46.1 µM] | x | 9%
Cc1cc(C)n(-c2cccc(CN(C)Cc3nc(-c4cnccn4)no3)c2)n1 | -1% | -8% | x | u | 0% | 1%[46.1 µM] | x | 5%
C=CCn1c(N2CCCC2)nc2c1c(=O)[nH]c(=O)n2C | 0% | x | 5.7% | 5% | 5% | -8% | 0% | -5%
Cc1csc2nc(=O)c3ccccc3n12 | 6% | 0% | 4.1% | 0% | 0% | 8% | -11% | -23%
Cc1nc2c(C(=O)N3CCOCC3)cnn2c(C)c1Cc1ccc(Cl)cc1 | 1% | -15% | 2.7% | -2% | -6% | -11% | 10% | 17%
COC(=O)c1c(NC(=O)c2cccnc2)sc(C)c1C | -89% | u | -7.5% | -2% | 1% | 20% | 28% | -9%
Cc1cc(NC(=O)Nc2cc(Cl)ccc2C)no1 | -2% | 23% | x | x | -1% | x | x | -2%
COc1ccc(Cl)cc1S(=O)(=O)N1CCCc2ccccc21 | 1% | 14% | x | x | -4% | x | x | 0%
CC(C)n1c(CNC(=O)c2ccccc2F)nnc1SCC(=O)c1ccc(F)cc1 | x | -13% | x | 1%[46.1 µM] | x | -6% | x | 0%
Cc1cccnc1NC(=O)c1ccc2nc(N)sc2c1 | 0% | 3% | 3.5% | u | 11% | -4% | 2% | 2%
CCN1CCCC1Cn1cnc2c([nH]c3cc(OC)ccc32)c1=O (stereo unspecified) | 4% | -11% | -11% | -9% | 1% | 14% | -16% | 0%
O=C(O)CNS(=O)(=O)c1ccc2c3c(cccc13)C(=O)N2 | 6% | -7% | x | u | 1% | -1% | x | -6%
CC1CN=C(c2cccn2Cc2ccc(F)cc2Cl)O1 (stereo unspecified) | -4% | -26% | 3.0% | 4%[46.1 µM] | -3% | 4% | 11% | -2%
Cc1nnc2c3ccccc3c(Cl)nn12 | 2% | -11% | x | 0%[46.1 µM] | 1% | 3%[46.1 µM] | x | -5%
CC1CC(=O)N(CC(=O)Nc2ccc(F)cc2F)c2ccccc2S1 (stereo unspecified) | x | -8% | -3.0% | 9%[46.1 µM] | x | x | 2% | x
CCOC(=O)CN(C(=O)CSc1nnc(COc2ccc(OC)cc2)n1C)c1ccccc1 | -2% | 0% | 1.5% | 10%&10% | 4% | 16% | 9% | 7%

Overlap with the part before: 3 compounds, followed by the next part.
SMILES | NS1 function inh | 2A StopGo | Cruzain Triton | MARV entry inh | SARS PLP yeast | Lassa entry inh | Cruzain noTriton | RE007 growth inh
Cc1nnc2c3ccccc3c(Cl)nn12 | 2% | -11% | x | 0%[46.1 µM] | 1% | 3%[46.1 µM] | x | -5%
CC1CC(=O)N(CC(=O)Nc2ccc(F)cc2F)c2ccccc2S1 (stereo unspecified) | x | -8% | -3.0% | 9%[46.1 µM] | x | x | 2% | x
CCOC(=O)CN(C(=O)CSc1nnc(COc2ccc(OC)cc2)n1C)c1ccccc1 | -2% | 0% | 1.5% | 10%&10% | 4% | 16% | 9% | 7%
COc1ccc(N2C(=O)C3CCCN3C2c2cccs2)cc1 (stereo unspecified) | -1% | 0% | 10% | x | 0% | x | -4% | -6%
COc1ccc(CC(O)COS(N)(=O)=O)cc1 (stereo unspecified) | -1% | -6% | x | x | -13% | x | x | -1%
CN(CC(=O)Nc1ccc(Cl)c(C(F)(F)F)c1)C(=O)c1cn2ccccc2n1 | x | -4% | x | 0% | -20% | 4% | x | 30%
COc1ccc(Cc2nc3ccc(C(=O)N(C)CCO)cc3o2)cc1 | 1% | 6% | x | 13%[46.1 µM] | 1% | u | x | 11%
O=C(NCC1(N2CCOCC2)CCCCC1)c1ccc(S(=O)(=O)Nc2ccccc2F)cc1 | -4% | 20% | x | -4% | 20% | 2% | x | -1%
COc1ccccc1CNC(=O)COc1ccc(S(=O)(=O)N2CCOCC2)cc1C | -8% | 1% | x | -22%[46.1 µM] | 2% | -5%[46.1 µM] | x | 1%
CCN(CC)CCN(Cc1cc2ccc(C)cc2[nH]c1=O)C(=O)Nc1ccc(Cl)cc1 | -35% | -15% | x | u | -4% | 28%[46.1 µM] | x | 35%
COc1ccc(C(CNC(=O)c2ccc(N3CCCC3=O)cc2)N(C)C)cc1 (stereo unspecified) | -9% | -19% | 0.8% | -10% | 1% | -12% | 0% | 4%
COc1ccc(CN(Cc2cccn2C)S(=O)(=O)c2ccc(C)cc2)cc1 | -4% | 17% | x | -13%[46.1 µM] | -5% | -29% | x | -11%
O=C(CNC(=O)c1ccccc1)NCC1COc2ccccc2O1 (stereo unspecified) | 16% | -4% | -1.4% | -3% | u | -14% | 10% | -1%
CC(=O)Nc1ccc(N(C(=O)CNC(=O)c2ccco2)C(C(=O)NC2CCCC2)c2ccco2)cc1 (stereo unspecified) | -3% | 13% | x | 8%[46.1 µM] | 5% | -2% | x | -21%
Cc1ccc(CC(=O)NCCC(=O)O)cc1 | 4% | -6% | x | x | 1% | x | x | 1%
COc1ccccc1CNCC(=O)N1CC(=O)Nc2ccccc21 | x | 4% | x | -7% | 3% | -2% | x | -1%
Cc1onc(-c2ccccc2)c1C(=O)OCC(=O)N(C)c1c(N)n(Cc2ccccc2)c(=O)[nH]c1=O | x | 0% | x | 0% | -4% | 9% | x | -8%
Cc1cn(C)c(CC(=O)N2CCN(c3ccccc3F)CC2)c1C(=O)O | x | -16% | 1.8% | x | x | 4%[46.1 µM] | u | x
C=CCn1c(SCc2nc3ccccc3c(=O)[nH]2)nnc1-c1cc2cc(Cl)ccc2o1 | u | -13% | 6.4% | 14% | 10% | -15% | 1% | 6%
CC1CN(C(=O)N2CCC(C(=O)NCCCc3ccccc3)CC2)c2cc(Cl)ccc2O1 (stereo unspecified) | x | u | -4.8% | x | x | u | -5% | x
Cc1cc(C)c(C(=O)C(C)OC(=O)Cc2n[nH]c(=O)c3ccccc23)cc1C (stereo unspecified) | 10% | -8% | x | x | 0% | x | x | 3%
COc1ccc(NC(=O)c2ccc(COc3ccccc3Br)o2)cc1OC | -40% | -11% | -14% | u | 1% | u | 27% | -5%
CC(=O)c1ccc(N2CCN(C(=O)c3cc4cc5cc(C)ccc5nc4s3)CC2)cc1 | x | 0% | -1.0% | x | x | 16%[46.1 µM] | -2% | x
Cc1cc(C)c(-c2csc(Cc3nc(-c4cc5ccccc5oc4=O)cs3)n2)cc1C | -2% | u | -1.8% | u | 18% | -12% | 10µM* | -4%
Cc1ccc(S(=O)(=O)CC(=O)Nc2nc(-c3ccccc3)cs2)cc1 | 29% | u | -3.0% | -22% | -22% | u | -1% | 15%
CCc1ccc(NC(=S)N(CCOC)C2CCN(C(C)=O)CC2)cc1 | -1% | -2% | x | x | -2% | x | x | -11%
COc1ccccc1C(=O)C1CCCN(C(=O)c2cc(CC(C)C)nc(C)n2)C1 (stereo unspecified) | -1% | -13% | x | x | 1% | x | x | -6%
COc1ccc(-c2nc(CS(=O)CC(=O)NCc3ccc4c(c3)OCO4)c(C)o2)cc1 (stereo unspecified) | 7% | 0% | -3.1% | 7% | 7% | x | 1% | 4%
O=c1c2ccccc2[se]n1-c1ccccc1 | -28%&-49% | 11% | u | 18µM* | -76% | 15µM* | -25%&-7%&-7% | -21%
COc1ccc(NC(=O)CSc2nnnn2-c2ccccc2F)cc1 | 14% | 11% | x | x | 3% | x | x | 3%
N#CC1=C(N)c2ccccc2CC12CCCCC2 | -11% | x | -13% | 9% | -4% | 4% | -5% | -11%
CCc1nc2ccccc2n(CC)c1=O | 12% | -8% | -0.8% | u | 6% | 3% | -5% | 1%
CCc1ccc(NC(=O)Cn2c(=O)oc3cc(S(=O)(=O)N4CCOCC4)ccc32)cc1 | 3% | -14% | -4.8% | x | -1% | x | 5% | -2%
CCOC(=O)c1ccccc1NC(=O)CSc1ccc(-c2sc(C)nc2C)nn1 | x | u | -6.6% | x | x | -7%[46.1 µM] | u | x
CCC(=O)Nc1ccc(C(=O)OCc2ccc(Cl)c(Cl)c2)cc1 | 5% | -4% | -5.5% | u | 14% | -7% | 17% | x
CCOc1ncccc1C(=O)OCC(=O)c1cccs1 | 3% | 3% | 2.0% | 15% | 8% | 7% | -2% | -2%
COc1ccc(C(O)c2coc3ccc(O)c(CN(C)C)c23)cc1 (stereo unspecified) | -8% | 1% | -0.6% | u | 5% | -11% | -11% | -8%
Cc1ccc(OCCNC(=O)c2cc(-n3cnnc3)ccc2Cl)cc1C | 7% | x | -0.8% | 0% | 4% | 5% | -8% | 1%
NC(=O)c1ccc2c(=O)n3c(-c4cc(Cl)c(N)c(Cl)c4)csc3nc2c1 | -4% | -16% | x | x | 2% | x | x | -7%
OCC[C@@H]1C[C@H](O)[C@@H](O)[C@@]2(Cc3ccccc3O2)O1 | -2% | -7% | x | x | 0% | x | x | -7%
